Screens deposited in PubChem BioAssay by several laboratories.
B2AR ag: beta2AR agonists driving receptor internalization, primary screen, cell-based, FAP fluorogen, flow cytometry; response, % (concentration not given with the values); AID 504454, 2011; 340,000 tested, 0.43% active; Am2.2-beta2AR cells; reference of the scale not given here;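 active means response above a set limit, near 3 SD of response in nonfluorescent compounds, cut at about 42% in these data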;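 further: stock transfer was 100 nL into about 11 µL; a reference agonist was the positive control; negative values mostly stem from fluorescent compounds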
Target sequence (P07550 whole entry, looked up): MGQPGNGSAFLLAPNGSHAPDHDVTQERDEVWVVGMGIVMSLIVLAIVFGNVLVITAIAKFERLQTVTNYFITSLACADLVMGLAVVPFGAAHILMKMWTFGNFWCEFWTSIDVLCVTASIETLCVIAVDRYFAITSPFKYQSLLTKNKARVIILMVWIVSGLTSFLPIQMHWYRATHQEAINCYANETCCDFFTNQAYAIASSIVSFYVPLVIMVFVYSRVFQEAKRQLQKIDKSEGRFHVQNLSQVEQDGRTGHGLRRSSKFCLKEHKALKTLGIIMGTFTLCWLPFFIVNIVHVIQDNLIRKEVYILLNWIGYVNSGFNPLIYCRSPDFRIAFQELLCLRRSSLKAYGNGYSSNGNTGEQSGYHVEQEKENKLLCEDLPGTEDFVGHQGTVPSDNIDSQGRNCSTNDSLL
Ecoli rRNA inh: reduced GFP signal of wild-type E. coli, primary screen, bacterial rRNA inhibitor project, GFP/RFP fluorescence, OD600, single point; E. coli WT GFP vs humanized-ribosome RFP mutants, 24 h; stronger effect = lower value; DMSO median 0, no signal -100; GFP signal change (wild-type ribosome), % (concentration not given with the values); 350,000 tested, 1.6% active;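 active means significant combined selectivity score with lowered wild-type GFP, culture density cut under 30%, mutant RFP and density less affected; inactive means any of these conditions unmet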; further: one replicate is shown; some compounds called inactive have numbers as strong as hits
Calb FLC: C. albicans growth inhibition with fluconazole, primary screen, CaCi-2 strain, Alamar Blue fluorescence | AID 1979, 2009 | C. albicans CaCi-2 (fluconazole-resistant clinical isolate) + fluconazole, 48 h | growth inhibition, % (no concentration beside the values) | 300,000 tested, 0.57% active;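 active means most replicates above 75%; inconclusive means exactly half above 75%; inactive means most below 75%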;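 further: all wells also contain fluconazole at 8 µg/ml as a sub-toxic cotreatment; 0% = median of DMSO wells and 100% = median of geldanamycin control wells; wells of about 8 µL received 7.5 nL stock; the first replicate is given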
Bfl-1 A1 inh: caspase 3/7 activation in MEF A1-2A-BIM cells, primary screen, A1 inhibitor project, cell-based, luminescence, HTS; Caspase-Glo 3/7 luminescence, 3 h; percent of clofoctol response, vehicle zero; 330,000 tested, 0.066% active; caspase activation, % (test concentration not listed);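 active means over half of replicate activation scores above 10%, or exactly half above 10 with the replicate mean above 10; inconclusive means replicate mean below 10 yet half the replicates above 10; inactive means over half of replicates below 10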;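 further: wells of about 30 µL received 50 nL stock; many hits fall short of the cut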
Beta apoptosis: inhibitors of cytokine-induced beta cell apoptosis, primary screen, luminescence; INS-1E cytokine-induced death, ATP luminescence, 48 h; percent of positive-control rescue, neutral wells zero; protection from apoptosis, % (concentration not given with the values); 300,000 tested, 0.8% active;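 active means all replicates at 75% or more, or half of them and the mean; inconclusive means half reach 75% but not the mean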;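 further: 0% = cytokine-treated negative control wells and 100% = positive control rescue; higher means more ATP so stronger rescue from cytokine killing; wells of about 40 µL received 100 nL stock; the first replicate is given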
ALR H2O2 inh: inhibitors of human ALR sulfhydryl oxidase, primary screen, biochemical, H2O2 detection, HRP-luminol luminescence, single point; FAD-linked sulfhydryl oxidase ALR (Homo sapiens), P55789; purified ALR, DTT oxidation; inhibition, % (no concentration beside the values); 290,000 tested, 3.8% active;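 active means mean and each replicate at 75% or more; inconclusive means only one of the two met; inactive means neither met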;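 further: stock transfer was 7.5 nL into about 7.5 µL; 0% = neutral wells and 100% = wells with inactivated enzyme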
Target sequence (P55789 whole entry, looked up): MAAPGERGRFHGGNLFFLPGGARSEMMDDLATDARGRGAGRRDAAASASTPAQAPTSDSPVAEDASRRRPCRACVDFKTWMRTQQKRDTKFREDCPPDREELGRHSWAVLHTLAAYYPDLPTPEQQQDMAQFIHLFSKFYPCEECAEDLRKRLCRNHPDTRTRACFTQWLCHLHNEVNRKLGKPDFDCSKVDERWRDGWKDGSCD
T cruzi inh: inhibitors of intracellular T. cruzi growth, primary screen, luminescence, NIH3T3 host cells. T. cruzi beta-gal in NIH3T3, 90 h. inhibition, % (concentration not given with the values). 300,000 tested, 1.4% active;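 active means mean inhibition across valid replicates above about 55%, limit read from the data; inconclusive means mean below that limit but half or more replicates reach it; inactive means mean below it, under half of replicates reach it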;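 further: signal also drops with host cell toxicity which is not excluded here; 0% = plate median of DMSO wells and 100% = zero luminescence signal; higher percent means less beta-gal luminescence so fewer parasites; stock transfer was 50 nL into about 50 µL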
LANA-H2A inh: blockers of LANA interaction with H2A/H2B – biochemical, FP readout, HTS, primary screen | inhibition, % (no concentration beside the values) | AID 2629, 2010 | cell-free LANA-H2A/H2B peptide, fluorescence polarization | 320,000 tested, 0.6% active; in the data active means inhibition mostly above about 10%, no sharp cut-off; inactive means mostly below about 6.7%;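 further: stock transfer was 7.5 nL into about 10 µL; 0% = median of vehicle wells and 100% = median of positive control wells; one replicate is shown; the record names a cut of 25% in any replicate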
Ecoli rRNA inh OD600: also measured in Ecoli rRNA inh; calls as there; OD600 change, %; measured here: OD600 growth;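 optical density of the mix in the first replicate; 0 = DMSO median and -100 = no signal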
Ecoli rRNA inh RFP: further read-out of Ecoli rRNA inh, marked with its call; RFP signal change, %; measured here: RFP humanized mutant strains;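 first replicate; 0 = DMSO median and -100 = no signal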
An asterisk follows results filed as active; i = inactive; u = inconclusive; x = not tested or not shown; & = joins results of further samples. These rows are one share of the data; the hit share may differ from the screen's.

Compound	Beta apoptosis	Ecoli rRNA inh	LANA-H2A inh	Ecoli rRNA inh RFP	B2AR ag	T cruzi inh	Ecoli rRNA inh OD600	Calb FLC	ALR H2O2 inh	Bfl-1 A1 inh
O=C(CCCCCn1c(=S)[nH]c2ccc(N3CCOCC3)cc2c1=O)NCc1ccc2c(c1)OCO2	-4.2	-1.4	0.0	-0.9	7.9	7.5	4.9	4.5	-14.7	0.9
Cc1cccc(CS(=O)(=O)Cc2ccc(C(=O)NC(C)c3ccccc3)o2)c1 (centres undefined)	3.5	-1.8	1.4	2.8	-4.1	6.8	-17.8	-3.8	0.7	1.1
O=C(Nc1ccc2c(c1)OCO2)C1CCN(c2ccc(S(=O)(=O)N3CCOCC3)cc2)CC1	2.3	x	-0.8	x	10.5	22.4	x	1.8	-10.9	-0.3
COc1cc(C(=O)NCc2ccc(F)cc2)cc(Cl)c1OC	-2.2	x	1.7	x	-9.1	-2.4	x	-37.7	1.0	0.2
CC(=O)NC(c1cc(Cl)c2ccccc2c1O)C(C)C (centres undefined)	1.5	-2.7	-2.7	-8.3	-4.4	x	-11.8	x	93.6*	-1.8
Cc1cc(/C=C2\C(=O)NN(c3ccccc3)C2=O)c(C)n1-c1ccccc1O	2.8	0.5	-0.1	-3.2	-9.7	-3.6	8.4	4.6	5.2	-8.0
NC(=O)Cn1cc(C(=O)C(=O)N2CCOCC2)c2ccccc21	-3.2	14.1	-7.4	3.5	-2.1	-14.7	7.8	-2.7	-8.2	-1.1
CC[C@H](C)[C@H](NC(N)=O)C(=O)Nc1ccc2c(c1)OCO2	-0.2	-1.9	0.3	-2.2	6.0	-12.4	-2.3	-3.0	1.2	-0.4
CCN1CCN(C(c2ccc(C(F)(F)F)cc2)c2ccc3cccnc3c2O)CC1 (centres undefined)	86.4*	-56.5	-1.0	-17.1	29.2	40.0	-77.9	-2.2	21.6	1.1
COc1ccc(S(=O)(=O)Nc2ccc(F)c(F)c2)cc1Cl	-0.2	x	1.6	x	1.6	4.5	x	4.4	-8.6	1.2
C[C@H](CO)N1C[C@H](C)[C@@H](CN(C)C(=O)Nc2ccc(C(F)(F)F)cc2)Oc2c(cccc2N(C)C)C1=O	-0.6	-11.3&3.6	3.6	3.7&10.2	0.6	x	2.5&4.4	x	-3.4	0.1
C[C@@H]1NC(=O)c2cc([N+](=O)[O-])cc(I)c2OCC[C@@H](C(=O)NC(CC(=O)O)C(N)=O)NC(=O)[C@H](CC(N)=O)NC1=O (some centres undefined)	-6.6	x	-1.9	x	x	x	x	x	-1.0	1.9
O=C(O)CCCCCNS(=O)(=O)c1cccc2c1C(=O)c1ccccc1C2=O	-11.6	-34.6	2.2	-23.9	8.4	-15.7	-58.0	4.5	-54.8	0.5
CS(=O)(=O)c1ccc2nc(NC(=O)c3cccc([N+](=O)[O-])c3)sc2c1	x	-10.0	-2.1	1.2	16.7	-11.4	0.4	-3.7	x	-8.4
Cc1ccc(S(=O)(=O)N2CCN(C(=O)N3CCOCC3)CC2)cc1C	-0.2	-6.4	8.7	-3.5	-2.7	-10.6	-4.1	0.1	-6.1	0.6
C/C=C/C(=O)OCC(=O)Nc1cc([N+](=O)[O-])ccc1Cl	0.6	x	0.1	x	0.0	-7.3	x	-14.8	-12.4	1.3
CCN(CC(=O)NCc1ccc(F)cc1)C(=O)/C=C/c1ccc(OC)cc1	-4.5	1.4	-5.7	-1.2	-6.0	-9.0	-7.1	-10.5	-4.6	0.8
Cc1occc1C(=O)NC(C)C12CC3CC(CC(C3)C1)C2 (centres undefined)	-3.8	-10.8	-2.3	-2.9	-2.4	4.0	-22.2	-9.7	5.0	-0.5
CCCCn1c(N)c(N(CCOC)C(=O)COc2ccc(OCC)cc2)c(=O)[nH]c1=O	-2.7	4.7	i	1.2	-9.4	-14.6	-2.6	-7.7	-4.8	1.4
CN(C)S(=O)(=O)c1ccc(NC(=O)CN2CCN(c3ccccn3)CC2)cc1	1.0	2.2	0.8	6.5	2.1	-6.3	14.0	-1.6	-3.3	0.4
CC1(C)CC(=O)C(N=Nc2c(Cl)cc(Cl)cc2Cl)=C(O)C1	-8.3	x	-6.2	x	-14.6	-8.3	x	35.2	20.7	-0.3
N#Cc1cc(Oc2ccc(Cl)cc2)c(N2CCOCC2)cc1C#N	4.9	x	4.3	x	2.8	9.1	x	3.0	-1.5	0.9
CN(C(=O)c1cc(COc2c(F)cccc2F)on1)C1CCOC1 (centres undefined)	-3.6	13.0	-1.7	2.0	-1.7	0.0	9.7	5.3	-12.5	-0.2
COCc1cc(=O)c2ccccc2o1	0.3	4.1	-4.2	-3.3	-3.9	x	16.2	x	1.7	-1.2
O=S(=O)(c1cccs1)N1CCN(Cc2nc3ccccc3s2)CC1	1.9	x	-1.3	x	7.7	-5.9	x	-2.6	-10.8	1.4
COc1ccc(CN2CC(C(=O)NCCN3CCOCC3)CC2=O)cc1 (centres undefined)	-0.2	x	2.0	x	2.7	-16.2	x	-18.9	-3.4	0.5
O=C(O)CSC(C(=O)Nc1ccc(C(F)(F)F)cc1)c1ccccc1 (centres undefined)	0.2	x	0.0	x	4.8	-17.2	x	1.2	x	-1.0
O=C(C1CCCN(Cc2ccc([N+](=O)[O-])cc2)C1)N1CCCCC1 (centres undefined)	-0.1	-7.4	-0.5	1.5	5.2	20.6	12.1	1.0	-7.3	0.9
COc1ccc(C(=O)N2CCN(Cc3ccc4c(c3)OCO4)CC2)cc1OC	3.1	5.1	-2.1	-1.6	1.4	2.6	9.6	8.9	-9.6	0.4
O=C(NC1CCCCC1)c1cc(F)cc2c1OCOC2	-4.1	-1.7	0.4	-1.0	-13.8	-6.7	4.0	8.2	43.6	0.2
CCOc1ccc(/C(O)=C2/C(=O)C(=O)N(c3ccccn3)C2c2ccc(F)cc2)c(C)c1 (centres undefined)	-0.6	4.0	-1.5	-2.4	-5.5	1.8	3.7	10.4	4.7	-0.1
COc1ccc(N2CCN(C(=O)CSc3nnc4c(C)cc5ccccc5n34)CC2)cc1	-6.9	x	-6.4	x	0.3	10.2	x	-27.5	36.4	-0.3
CC(C)C[C@@H](CSc1ccc(Br)cc1)N1CCN(CCc2ccccc2)CCC1=O	10.1	-24.2	-6.3	14.0	-5.2	-1.0	-52.8	5.5	x	-0.4
CCOc1ccc(N(CC(=O)NCCSCc2ccccc2Cl)S(C)(=O)=O)cc1	-4.6	-14.0	4.3	-5.2	-4.4	1.9	-16.0	0.7	-5.1	-1.4
Cc1cccc(NC(=O)Nc2ccc(OCc3ccccc3)cc2)n1	x	11.9	0.3	-1.8	0.1	-1.4	12.4	-3.3	x	-0.9
CN1CCN(c2nc(C#N)cc(-c3ccccc3)n2)CC1	-5.2	x	-3.3	x	-10.9	18.6	x	-28.0	x	-0.4
O=C(NCCO)c1ccc2c3n(nc2c1)-c1ccc(Cl)cc1CO3	2.9	x	2.1	x	-1.3	-9.8	x	3.1	-2.3	-2.0
Cc1ccc(N2CC(C(=O)NCCC(C)C)CC2=O)cc1 (centres undefined)	-4.3	x	0.7	x	-6.7	-2.1	x	-6.3	-6.2	-0.1
CC(=O)Nc1nc2ccc(S(=O)(=O)N3CCCC3)cc2s1	-1.0	3.1	0.8	2.1	4.2	10.6	9.8	-0.1	-20.0	1.1
Cc1ccsc1CN(C)CC(=O)NCC(=O)Nc1ccc(F)cc1	-4.2	x	-3.4	x	-8.6	x	x	x	-9.5	u
COc1ccc(C(C)=O)cc1CN1C(=O)NC2(CCCCC2C)C1=O (centres undefined)	1.8	x	1.8	x	-9.1	-3.5	x	-45.9	-9.6	0.2
Cc1cc(=O)n2c3ccccc3n(CC(O)CN3CCN(CCO)CC3)c2c1C#N (centres undefined)	2.7	-14.5	3.6	0.1	-7.1	9.0	-6.8	-6.3	40.2	0.2
O=C(c1cccnc1)N1CCN(c2ccc3ccccc3n2)CC1	1.9	-0.6	1.9	-0.9	-3.5	-0.2	-0.2	2.3	-9.8	-0.1
Cc1ccc(NC(=O)C(C)OC(=O)c2ccc(NS(=O)(=O)c3ccc(F)c(F)c3)cc2)cc1 (centres undefined)	x	x	5.0	x	12.3	13.0	x	-0.1	5.7	-0.8
Cc1ccc(OCc2nnc(SC(C)C(=O)O)n2-c2ccccc2)cc1 (centres undefined)	x	9.5	-2.4	-0.3	3.1	20.1	17.1	-4.0	-2.7	-1.2
Cc1ccc(N2CC(NS(=O)(=O)c3cc(F)ccc3F)CC2=O)cc1C (centres undefined)	-2.4	1.5	x	2.2	0.8	-14.0	-6.5	7.6	x	0.1
CCCc1nc(SCc2ccccc2Cl)n[nH]1	x	x	2.7	x	-9.9	7.2	x	-10.1	-1.1	0.9
COCCNC(=O)c1c(NC(=O)c2nc(SC)ncc2Cl)sc2c1CCCC2	x	6.9	1.0	-3.1	-3.0	16.8	7.0	25.0	4.2	-0.7
Cc1ccc(Cl)cc1NC(=O)c1ccccc1OCC(=O)N1CCOCC1	-2.5	0.1	-1.7	2.3	-22.3	-7.8	0.2	31.5	-2.7	-0.2
COc1ccccc1N1CCN(CC(=O)Nc2ccc(CN3CCCCC3)cc2)CC1	-4.9	x	3.3	x	-1.7	7.5	x	7.7	25.5	-0.1
CC(C)c1ccc(/C=N/NC(=O)c2nnn(-c3nonc3N)c2CN2CCOCC2)cc1	-5.8	14.2	2.9	13.3	11.3	-1.0	-4.9	1.6	9.0	0.1
CC1CCN(c2nnc(-c3ccccc3)c3ccccc23)CC1	x	-20.0	-0.8	-4.6	-15.9	29.6	-16.6	25.9	7.9	0.1
FC(F)(Cl)c1nnc2ccc(Sc3ccccn3)nn12	-5.6	-0.1	5.0	-0.4	-4.7	-5.3	2.1	22.6	-10.7	0.8
O=C(CN1CCN(S(=O)(=O)c2ccc(F)cc2)CC1)Nc1cc(C(F)(F)F)ccc1Cl	15.8	x	x	x	-4.6	19.7	x	4.5	x	-0.1
CSCCC(NC(N)=O)C(=O)Nc1cccc(S(=O)(=O)N2CCOCC2)c1 (centres undefined)	-2.2	5.5	-4.1	-5.2	-2.9	-5.9	8.4	-18.0	-3.4	0.4
CCCCCCCCCCOC(=O)Cn1c(COc2ccccc2OC)[n+](C)c2ccccc21	107.2*	-55.3	6.2	-14.8	16.2	49.6	-79.8	-12.4	-12.5	-0.6
CCOc1cccc(OCCOCCn2cnc3ccccc3c2=O)c1	-0.3	x	-6.3	x	5.2	3.6	x	2.5	-5.7	0.2
CCCCn1c(N)c(N(CCOC)C(=O)c2ccc(C)c(S(=O)(=O)N3CCOCC3)c2)c(=O)[nH]c1=O	-0.4	10.9	-0.7	-1.2	-2.6	2.8	11.0	x	1.6	0.4
COc1ccc(-c2nnc(NC(=O)c3ccc4c(c3)OCCO4)o2)cc1	-0.6	-8.5	-4.4	-1.9	-2.9	18.6	-6.3	-1.1	0.0	-1.7
